2A StopGo: High Throughput Screening for Foot and Mouth Disease Virus Antivirals; Potency, µM (series often up to 57.9 µM), without a hit: at the top dose signal change, negative = less light; AID 1159524, 2015; human cells with a luciferase reporter of 2A StopGo recoding; control for the full effect not named in the record; hit rate 1.2% among 410,000; active = well fitted falling curve with a large enough effect; inconclusive = small, poorly fitted or top-dose-only effect; inactive = no such curve, though single readings can be large or run the other way; tested in HEK293T cells; also: % is scaled to controls: 0 for no effect and ±100 for the full control effect; nearly all actives have a fitted effect of over 45% in size; luciferase light after 4 h
Cruzain inh noDet: qHTS Assay for Promiscuous and Specific Inhibitors of Cruzain (without detergent); Potency, µM, for inactives: max response, negative = inhibition, actives largely listed as inhibitors; purified cruzain, Z-FR-AMC fluorescence, no detergent; AID 1476, 2009; hit rate 2.3% among 200,000; Cruzipain (Trypanosoma cruzi), P25779; active = well fitted curve in the direction sought with a large enough effect; inconclusive = small, poorly fitted or top-dose-only effect, or another doubt; inactive = no such curve, though single readings can be large; an effect the other way counts as inactive or inconclusive;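 also: plate controls were enzyme without inhibitor for no effect and buffer without enzyme for full effect; nearly all actives have a fitted effect of over 40% in size; top concentration of the series not given in the record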
Target sequence (P25779 123-467 limits assumed): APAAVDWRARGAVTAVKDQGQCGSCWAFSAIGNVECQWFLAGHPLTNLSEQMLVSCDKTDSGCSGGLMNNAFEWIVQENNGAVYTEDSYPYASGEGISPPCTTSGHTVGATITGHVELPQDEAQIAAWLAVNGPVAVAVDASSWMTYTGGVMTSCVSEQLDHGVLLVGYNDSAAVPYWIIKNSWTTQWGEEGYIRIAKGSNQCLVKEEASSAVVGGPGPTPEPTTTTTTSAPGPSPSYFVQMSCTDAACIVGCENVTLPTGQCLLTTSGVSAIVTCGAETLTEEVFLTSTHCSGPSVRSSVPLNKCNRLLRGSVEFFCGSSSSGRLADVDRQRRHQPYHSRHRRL
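Purified cruzain at 1.5 nM, pre-incubated 15 min with compound at room temperature in 100 mM sodium acetate pH 5.5, 5 mM DTT, 0.00005% Triton X-100. Reaction started with 2 uM Z-FR-AMC; AMC fluorescence increase over 60 s gives rate.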
NS1 inh: qHTS Assay for Inhibitors of Influenza NS1 Protein Function | S. cerevisiae slowed by influenza A NS1, growth recovery by OD600 | Potency, µM (highest dose often 46.1 µM), for inactives: at the highest dose activity, positive = more growth | hit rate 0.4% among 270,000; also: actives are rising curves; nearly all actives have a fitted effect of over 50% in size
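S. cerevisiae expressing influenza A NS1, grown in glucose, washed, then diluted 1:100 into pH 6.0 -URA galactose medium with 23 nl compound. Growth recovery read as OD600; NS1-free strain serves as control.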
Cruzain inh Det: qHTS Assay for Promiscuous and Specific Inhibitors of Cruzain (with detergent). Potency, µM, for inactives: max response, negative = inhibition, hits mostly inhibitors. purified cruzain, Z-FR-AMC fluorescence, 0.01% Triton. hit rate 0.43% among 200,000. Cruzipain (Trypanosoma cruzi), P25779; active = well fitted curve in the direction sought with a large enough effect; inconclusive = small, poorly fitted or top-dose-only effect, or another doubt; inactive = no such curve, though single readings can be large; an effect the other way counts as inactive or inconclusive;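 also: plate controls were neutral wells for no effect and buffer without enzyme for full effect; nearly all actives have a fitted effect of over 40% in size; top concentration of the series not given in the record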
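Purified cruzain (1.5 nM final) was preincubated with compounds for 15 min at room temperature in 100 mM sodium acetate pH 5.5, 5 mM DTT, 0.01% Triton X-100. Reaction started with 2 uM Z-FR-AMC; AMC fluorescence change over 60 s gave activity.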
RE007 growth inh: qHTS Assay for Inhibitors of the HIV-1 protein Vpr; S. pombe RE007 Vpr strain, BacTiter-Glo ATP luminescence, 24 h; control for the full effect not named in the record; Potency, µM (highest dose often 92.2 µM), for inactives: at the highest dose activity change, negative = less growth; hit rate 0.21% among 360,000; AID 651644, 2012; active = well fitted falling curve with a large enough effect; inconclusive = small, poorly fitted or top-dose-only effect; inactive = no such curve, though single readings can be large or run the other way;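 also: % is scaled to controls: 0 for no effect and ±100 for the full control effect; nearly all actives have a fitted effect of over 50% in size; the assay follows cell death caused by Vpr and the record does not say whether a fall means rescue or toxicity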
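Fission yeast RE007 carrying one integrated HIV-1 vpr copy, seeded at OD 0.01 in PMG+AL medium with 23 nL pinned compound. Grown 24 h at 30 degrees; viability read by BacTiter-Glo luminescence after 5 min.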
Lassa entry inh: qHTS for Inhibitors of binding or entry into cells for Lassa Virus; Lassa virus pseudotype entry inhibition, cell reporter; control for the full effect not named in the record; Potency, µM (doses to about 37.9 µM), for inactives: at the highest dose activity change, negative = inhibition, actives largely listed as inhibitors; hit rate 1.2% among 300,000; active means well fitted inhibition curve with a large enough effect; inconclusive means small, poorly fitted or top-dose-only effect, or effect the other way; inactive means flat fitted curve, though single readings scatter; tested in HEK293 cells; also: % is scaled to controls: 0 for no effect and ±100 for the full control effect; nearly all actives have a fitted effect of over 50% in size; luciferase read-out
Marburg entry inh: qHTS for inhibitors of binding or entry into cells for Marburg Virus; hit rate 1.8% among 300,000; Potency, µM (highest dose often 37.8 µM), for the others: at the highest dose activity change, negative = inhibition, actives largely listed as inhibitors; Marburg virus pseudotyped entry inhibition, cell reporter; control for the full effect not named in the record; about a third of the inactives were read at about 46 µM; active = well fitted inhibition curve with a large enough effect; inconclusive = small, poorly fitted or top-dose-only effect, or effect the other way; inactive = flat fitted curve, though single readings scatter; tested in HEK293 cells; about a fifth of its hits are not listed in these tables; also: % is scaled to controls: 0 for no effect and ±100 for the full control effect; luciferase read-out
SARS PLP yeast: qHTS of Yeast-based Assay for SARS-CoV PLP; S. cerevisiae expressing SARS-CoV PLpro, growth rescue; control for the full effect not named in the record; Potency, µM (titrated, usually from 32.9 µM), inactives show at the top dose activity, positive = growth rescue; hit rate 0.19% among 330,000; also: 0% is about no effect; nearly all actives have a fitted effect of over 55% in size; growth read by luminescence after 48 h
Numbers without * were called inactive; u = inconclusive; x = no result given; & = joins results of further samples; [ ] = dose if it differs, or a comment. Unless noted, calls follow the shape of the dose curve; as a rule, active means well fitted rising curve with a large enough effect; inconclusive means small, poorly fitted or top-dose-only effect; inactive means no such curve, though single readings can be large or run the other way. Potency is read from the fitted curve at half-maximal effect.

Start of the data: the first 5 entries, ahead of the listing:
structure	2A StopGo	Cruzain inh noDet	NS1 inh	Cruzain inh Det	RE007 growth inh	Lassa entry inh	Marburg entry inh	SARS PLP yeast
Cc1nnc(C)c2c(C)n(-c3ccccc3)c(C)c12	-11%	x	3%	x	-10%	x	x	0%
CN1CCC(N(C)CC(=O)Nc2ccccc2N2CCOCC2)CC1	-12%	-1%	-4%	6.7%	7%	2%	u	u
Cc1c2c(nc3c(C(=O)NC4CCCC4)cnn13)CCCC2	14%	-5%	-32%	-0.2%	-20%	-18%	u	-4%
CC(=C1C(=O)c2ccccc2C1=O)N1CCC(C(N)=O)(N2CCCCC2)CC1	-10%	3%	-44%	-1.1%	-9%	u	16%	-3%
CC(C)NC(=O)CC(=O)N/N=C/c1ccc(Br)cc1	x	7%	24%	-3.3%	1%	6%	1%	-1%

This part in full, from the first entry:
structure	2A StopGo	Cruzain inh noDet	NS1 inh	Cruzain inh Det	RE007 growth inh	Lassa entry inh	Marburg entry inh	SARS PLP yeast
Cc1nnc(C)c2c(C)n(-c3ccccc3)c(C)c12	-11%	x	3%	x	-10%	x	x	0%
CN1CCC(N(C)CC(=O)Nc2ccccc2N2CCOCC2)CC1	-12%	-1%	-4%	6.7%	7%	2%	u	u
Cc1c2c(nc3c(C(=O)NC4CCCC4)cnn13)CCCC2	14%	-5%	-32%	-0.2%	-20%	-18%	u	-4%
CC(=C1C(=O)c2ccccc2C1=O)N1CCC(C(N)=O)(N2CCCCC2)CC1	-10%	3%	-44%	-1.1%	-9%	u	16%	-3%
CC(C)NC(=O)CC(=O)N/N=C/c1ccc(Br)cc1	x	7%	24%	-3.3%	1%	6%	1%	-1%
C/C(Cl)=C\Cn1c(Nc2cccc(C)c2)nc2c1c(=O)n(C)c(=O)n2C	x	12%	-62%	-2.9%	2%	-15%	12µM*	1%
CN(Cc1ccco1)S(=O)(=O)c1ccc(CN2C(=O)c3cccnc3C2=O)s1	-9%	x	-1%	x	2%	x	x	-6%
CS(=O)(=O)N1CCc2cc(C(=O)Nc3ccc(C(F)(F)F)cc3)ccc21	-9%	0%	x	-7.2%	x	u	14%[46.1 µM]	x
COc1ccccc1N1CCN(C2=NS(=O)(=O)c3ccccc32)CC1	1%	-7%	-49%	-1.4%	12%	u	u	1%
CCOc1ccc(C2CC(c3ccccc3C)n3nc(N)nc3N2)cc1 (stereo unspecified)	-23%	4%	u	1.5%	-7%	x	x	9%
c1ccc(-c2cn3nc(-c4ccccc4)sc3n2)cc1	10µM*	x	x	x	9%	u	u	x
O=C1C(=C2SCCCS2)CC/C1=C\c1ccc(F)cc1	5µM*	-14%	-5%	1.8%	-4%	1.1µM*	2.5µM*	-12%
O=c1[nH]c(/C=C\c2ccccc2F)nc(O)c1[N+](=O)[O-]	-22%	x	4%	x	-10%	x	x	13%
CCOC(=O)NC(=S)Nc1ccc(C(C)(C)C)cc1Br	7%	x	2%	x	u	1%	u	-5%
c1ccc(Sc2ncnc3ccccc23)cc1	9%	x	-54%	x	-22%	27%	-13%[14.2 µM]	-2%
COC(=O)c1ccccc1NC(=O)C1CCCN(S(=O)(=O)c2ccc(F)cc2)C1 (stereo unspecified)	-28%	10%	-38%	3.3%	3%	-33%	u	0%
COc1cccc(NC2c3ccccc3C(=O)N2Cc2ccco2)c1 (stereo unspecified)	-23%	-14%	-4%	-3.3%	7%	x	x	-3%
CC(C)C(c1nnnn1C(C)(C)C)N1CCN(c2cccc(Cl)c2)CC1 (stereo unspecified)	u	8%	-60%	-2.9%	-3%	u	-12%	-12%
CCC(C)NC(=O)c1ccccc1NC(=O)c1ccc(CSc2ccccc2)cc1 (stereo unspecified)	-27%	0%	2%	-4.1%	-2%	u	-23%	-4%
COc1cc2c(cc1OC)CN(CC(=O)Nc1ccc(F)cc1)C(C(=O)O)C2 (stereo unspecified)	21%	x	-4%	x	-13%	23%[46.1 µM]	16%[46.1 µM]	-3%
NS(=O)(=O)c1ccc(NC(=O)COC(=O)/C(=C/c2cccs2)c2cccs2)cc1	-19%	x	1%	x	6%	x	x	-2%
COc1cccc(C(=O)c2cn(CC(=O)NCc3ccccc3Cl)c3nc(C)ccc3c2=O)c1	-23%	10%	x	0.8%	x	u	x	x
Cc1ccsc1C(=O)Nc1cccc(-n2cnnn2)c1	-14%	x	-9%	x	9%	x	x	14%
Cc1ccc(CN2CCSc3ccc(C(=O)Nc4ccc(C)cc4)cc32)cc1	38%[activator]	10µM*	x	-0.1%	x	6%[46.1 µM]	u	x
N#Cc1ccc(OCC(=O)NN2Cc3ccccc3C2=N)cc1	6%	x	0%	x	-2%	x	-2%[46.1 µM]	2%
Cc1cc(C)c(CN2CCC(n3nccc3NC(=O)c3ccccc3Cl)CC2)cc1C	u	x	9%	x	-27%	u	u	2%
CC1(C)OC(c2ccccc2)=C/C(=C/C=C2C(=O)NC(=S)NC2=O)O1	u	x	x	x	-15%	u	u	-1%
CN1C(=O)C2(N=c3ccccc3=N2)c2ccccc21	5%	-3%	-30%	-0.2%	-23%	9%	u	-10%
CCCN(C(=O)c1cc2c(=O)[nH]c3ccc(C)cc3c2s1)c1ccc(CC)cc1	-12%	-10%	x	-1.4%	x	x	13%[46.1 µM]	x
O=C(CSc1nnnn1-c1ccc2c(c1)OCCO2)Nc1nc2c(s1)CCCC2	x	u	-10%	1.7%	-5%	-3%	-10%	-2%
COc1ccc(C(=O)C2CCCN(C(=O)c3c4c(nn3C)CCCC4)C2)cc1F (stereo unspecified)	u	x	1%	x	2%	u	-26%[46.1 µM]	1%
Cc1cc(C(=O)CN2C(=O)NC3(CCCc4ccccc43)C2=O)c(C)n1Cc1ccccc1 (stereo unspecified)	-13%	25µM*	15%	-3.5%	11%	11%	-12%	-2%
COC(=O)C1C2CCCCC1C(=O)O2 (stereo unspecified)	-9%	x	x	x	13%	10%	u	x
O=C(COC(=O)CSCc1ccccc1)NCc1ccccc1	-3%	x	-7%	x	0%	4%	-8%[46.1 µM]	-1%
O=C(NCCSCc1ccco1)Nc1ccc(Cl)cc1	21%	-1%	-32%	-2.7%	-7%	-20%	8%	x
CCOC(=O)c1[nH]c(C)c(/C(O)=C2\C(=O)C(=O)N(CCCN3CCOCC3)C2c2cccnc2)c1C (stereo unspecified)	-1%	-2%	10%	-3.6%	0%	6%	5%	-2%
Nc1nc(-c2ccco2)nn1C(=O)CCc1ccccc1	-11%	-7%	-4%	9.7%	18%	7%	1%	2%
Cc1c(-n2cc(C(=O)c3cc(Br)ccc3O)cc(C#N)c2=O)c(=O)n(-c2ccccc2)n1C	6%	-6%	-11%	-3.1%	13%	8%	8%	-3%
CCC(C)n1[nH]c(=O)c2c(C)cc(C)nc21 (stereo unspecified)	-7%	4%	4%	7.1%	-13%	7%	4%[46.1 µM]	6%
O=C1C(Cl)=C(N2CCOCC2)C(=O)N1c1cccc(Cl)c1	-12%	13µM*	-17%	13µM*	-2%	1%	-22%	-3%
CCOc1ccc(NC(=O)C2CCN(S(C)(=O)=O)CC2)cc1	0%	x	-4%	x	5%	x	x	-4%
Cc1cc(C)c2oc(C(=O)NCCc3ccc(S(N)(=O)=O)cc3)cc(=O)c2c1	-13%&-17%	-8%	1%	-1.4%	-12%	-2%	-25%&15%[46.1 µM]	1%
CCn1c(C)nc2cc(C(=O)N/N=C/c3ccc(OC)c(O)c3)ccc21	1%	3%	0%	0.0%	-5%	18%	30%	-9%
COc1ccc(C(=O)NC(=S)N2CCN(c3ccccc3O)CC2)cc1	0%	x	x	x	u	u	3%	u
CC(=O)Nc1ccc(OCC(O)Cn2nc(C)nc2C)cc1 (stereo unspecified)	x	-7%	2%	4.7%	4%	-20%	2%	0%
COc1ccccc1CNC(=O)CN1C(=O)COc2ccc(S(=O)(=O)N3CCCCC3)cc21	2%&2%	-14%	6%	-1.9%	-2%	6%[46.1 µM]	x	4%
COc1ccc(NS(=O)(=O)c2cccc(C(=O)NCC(c3ccc(F)cc3)N3CCOCC3)c2)cc1 (stereo unspecified)	6%	x	-26%	x	-12%	x	x	6%
COc1cccc(NS(=O)(=O)c2cc3c4c(c2)CCC(=O)N4CCC3)c1	21%	x	x	x	-7%	u	-11%	0%
Cc1ccc(-c2nc(NC(=O)CSc3ncn[nH]3)ns2)cc1	8%	x	-2%	x	-5%	x	x	1%
Cc1cn(S(=O)(=O)c2cc(Br)ccc2Br)cn1	-27%	-1%	7%	-0.4%	3%	0%	-2%	-4%
Cc1ccc(OCCn2cccc2/C=C2/C(=O)NC(=O)N(Cc3ccco3)C2=O)cc1	16%	x	2%	x	-6%	2%[46.1 µM]	8%[46.1 µM]	4%
Cc1cc(Nc2cccc([N+](=O)[O-])c2)c2ccccc2n1	u	x	-1%	x	1%	10%	-1%[46.1 µM]	0%

Bioassay records (PubChem)
